From PubChem
Mtb hypoxia rep = inhibitors of hypoxia-regulated fluorescent reporter in Mycobacterium tuberculosis; M. tuberculosis hypoxia-regulated fluorescent reporter, fluorescence; fluorescence inhibition, % (test concentration not listed); 300,000 compounds, 0.1% hits;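 active = 35 to 45% if threefold the growth effect, above 45% if 1.5-fold the growth effect; inactive = the rest, general growth blockers included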;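 also: wells of about 50 µL received 100 nL stock; 0% = vehicle wells and 100% = reference inhibitor wells; whole bacteria with a GFP reporter of the hypoxia response; strong numbers were not always called active; many hits fall short of the cut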
RN4220 kill = kills Staphylococcus aureus RN4220 | 330,000 compounds, 0.33% hits | S. aureus RN4220 growth, OD600, 16 h | inhibition, % (no concentration beside the values) | AID 1259311;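 active = z-score of -3 or lower and OD600 up to 0.18 on both plates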;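 also: plate controls were untreated cells for no effect and reference antibiotic for full effect; stock transfer was 100 nL into about 80 µL; one replicate is shown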
BJeLR viability = kills HRASV12-expressing BJeLR cells; 300,000 compounds, 0.17% hits; BJeLR (HRASV12) viability, CellTiter-Glo ATP luminescence, 48 h; reference of the scale not given here; inhibition, % (test concentration not listed);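 active = replicate mean above 50%; inconclusive = above 50% but judged a plate artefact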;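 also: 50 nL library stock added to about 25 µL; numbers are from one replicate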
ugtP null kill = growth inhibition of S. aureus ugtP deletion strain; 330,000 compounds, 0.54% hits; AID 1259309; growth inhibition, % (concentration not given with the values); S. aureus RN4220 ugtP deletion, OD600 growth, 16 h; some inactives read as strong as hits;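 active = z-score under -3 and OD600 up to 0.15 on both plates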;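 also: plate controls were untreated wells for no effect and antibiotic for full effect; wells of about 80 µL received 100 nL stock; the first replicate is given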
Autofluor counter = compound fluorescence in toxin protease inhibitor counterscreen. compound autofluorescence counterscreen, microsphere flow cytometry; stronger effect = higher value. fluorescence intensity (no concentration beside the values). 360,000 compounds, 3.1% hits;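 active = at least 3 SD above the mean of all compounds, about 16000 in these data; inconclusive = too few beads counted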;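 also: 100 nL of 1 mM stock went into each well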
PrP UTR inh = suppresses PrP 5' UTR mRNA reporter expression | cell-based PrP 5' UTR mRNA reporter, plate reader | 340,000 compounds, 0.35% hits | AID 488862 | inhibition, % (test concentration not listed);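 active = every replicate at 50% or more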;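 also: 0 = median of the neutral control wells; tested in H4 reporter cells; numbers are from one replicate; inactives centre near -14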
Mtb hypoxia rep growth = also measured in Mtb hypoxia rep; calls as there; growth inhibition, %; measured here: M. tuberculosis growth (absorbance);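 0% = vehicle and 100% = reference antibiotic; read after six days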
* hit, by the source's call; ? = inconclusive; . = not tested or not shown. Random draw from the library; any-hit rate near 4%.

SMILES	Mtb hypoxia rep	Mtb hypoxia rep growth	RN4220 kill	BJeLR viability	ugtP null kill	Autofluor counter	PrP UTR inh
Cc1ccc(Cl)cc1N1CCN(S(=O)(=O)c2cn(C)cn2)CC1	6	5	7.3	3	8	5174	-23
CCc1nnc(NC(=O)c2ccc(OC)c(S(=O)(=O)N3CCCC3)c2)s1	6	10	2.4	.	-4	6498	4
C=CCC(C)(NCc1ccccc1)c1ccc(C)cc1 (stereo not drawn)	11	3	0.5	11	2	2236	-17
Oc1ccc2ccccc2c1C=Nc1nccs1	9	13	7.5	.	2	.	.
CN(CC(=O)Nc1ccc(F)cc1)C(=O)c1cccc(S(=O)(=O)N2CCN(c3ccc(F)cc3)CC2)c1	2	8	4.2	11	10	4975	-25
CCOC(=O)C1=C(COC(=O)c2ccc(OC)c(OC)c2OC)NC(=O)NC1C (stereo not drawn)	-8	-1	2.2	3	1	4120	-9
COC(=O)C1=C(C(=O)OC)[C@@H]2N(C)c3ccc(OC)cc3[C@@]23C[C@@H](C(=O)OC)N=C3N1	.	.	.	-4	.	3644	-7
Cc1cc(C)n(-c2ccc(C(=O)OCC(=O)c3c(N)n(C)c(=O)n(C)c3=O)cc2)n1	13	-2	5.0	3	9	9095	-25
COc1ccccc1C(=O)Nc1ccnn1C1CCN(C(=O)c2cnsn2)CC1	-7	-3	-4.2	-5	-6	7260	-28
CC(=O)c1c(C)[nH]c(C(=O)OCC(=O)NCc2ccc3c(c2)OCO3)c1C	1	10	-2.8	.	-2	3930	0
Cc1ccc(S(=O)(=O)CCC(=O)OC2CC(C)OC2=O)cc1 (stereo not drawn)	1	-3	4.4	.	5	.	-16
COc1ccc2nc(SCC(=O)O)nc(C)c2c1	.	.	3.6	.	1	4404	-10
CC(C)(C)NS(=O)(=O)c1ccc(N2C(=O)c3ccccc3C2=O)cc1	19	3	3.5	-5	6	?	-30
COc1ccccc1-c1oc2ccccc2c1C#CC(C)(C)O	-4	6	2.1	.	0	4241	-27
O=C(CCSc1nc2ccccc2s1)NN=Cc1c(O)ccc2ccccc12	14	9	2.6	.	7	.	.
Cc1ccc(Nc2nnc(SCC(=O)Nc3cccc(S(=O)(=O)NC4=NCCCCC4)c3)s2)c(C)c1	.	.	.	5	.	2139	-11
CCOC(=O)N1CCC(NCCNC(=O)c2cccc(F)c2)CC1	5	11	1.9	.	-7	3785	-1
Cc1ccc(NC(=O)COC(=O)CN2C(=O)COc3ccccc32)cc1	.	.	0.2	5	7	2842	-31
CC(Cc1ccsc1)NC(=O)CCc1nnc(CCc2ccccc2)o1 (stereo not drawn)	10	14	1.3	1	13	2206	-28
Cc1cc(C)cc(C(=O)Nc2nnc(SCC(=O)NCC3CCCO3)s2)c1 (stereo not drawn)	0	-5	-5.1	1	-3	5692	-13
Fc1ccccc1/C=N/n1cnnc1	.	.	.	8	.	10290	-5
O=C1OC(c2ccccc2)C(O)=C1c1ccccc1 (stereo not drawn)	8	7	5.8	.	9	3342	-27
CCOC(=O)c1ccc(Oc2nc(N(C)C)nc(N(C)C)n2)cc1	20	11	8.0	-6	12	4444	-4
CCCC(=O)Nc1ccc2c(c1)nc(CN1CCN(C(=O)OCC)CC1)n2CC	-9	7	-1.3	31	1	3739	-9
CC1(C)CC(=O)c2c(O)cc(OCC(=O)N3CCN(c4ccc(F)cc4)CC3)cc2O1	1	-1	2.7	2	-1	3810	-16
O=c1c2ccccc2nc(Cc2cccc([N+](=O)[O-])c2)n1-c1ccc(O)cc1	11	-2	4.6	6	15	5132	-10
Cc1csc(SCC(=O)Nc2ccc(S(=O)(=O)N3CCCC3)cc2)n1	5	4	2.4	-6	-2	10511	-22
CC1(C)CC(=O)C/C(=N/NC(=O)COc2ccc3ccccc3c2Br)C1	.	.	.	-4	.	5955	-17
COc1ccc2nc(N3CCCCC3)c(C#N)cc2c1	-4	-4	13	0	24	6356	-23
CCOC(=O)C1CCN(C(=O)COC(=O)CSc2ccc([N+](=O)[O-])cc2)CC1	12	-6	1.1	-13	8	5380	-22
CCN(CC)c1ccc(C2CC(=O)Nc3cc(OC)c(OC)cc32)cc1 (stereo not drawn)	.	.	3.0	1	5	4717	-7
CCC(c1nnc(SCC(=O)Nc2ccc(Cl)cc2C(F)(F)F)n1C1CCCCC1)N(C)C (stereo not drawn)	-4	11	4.1	3	-9	2090	-14
CC/C(=N\N=C(/CC)c1ccccc1N)c1ccccc1N	.	.	.	-1	.	5955	-42
CC(C)(C)C1=Nn2c(nnc2-c2ccccc2F)SC1	9	11	2.9	-13	3	7623	.
Nc1ccc(C(=O)N/N=C2\CCCc3c2[nH]c2ccccc32)cc1	.	.	.	-12	.	9925	-22
CCc1ccccc1N(C)S(=O)(=O)c1ccc(-c2cc(C)no2)s1	8	15	5.2	5	-17	5226	-5
COC(=O)c1ccc(CSC2=NC[C@@H]3[C@@H]4C(=O)N(Cc5ccccc5)C(=O)[C@@H]4[C@](C)(C(=O)OC)N23)cc1	-4	1	5.8	.	3	3914	-13
COc1cccc(N2C(=O)/C(=C\c3cccs3)NC2=S)c1	6	-4	4.0	10	15	5538	-22
O=C(CN1C(=O)C2CC=CCC2C1=O)Nc1nnc(SCc2ccc(Cl)cc2)s1 (stereo not drawn)	.	.	7.5	-4	-6	3098	-43
Cc1cc(Cl)ccc1OCC(=O)N/N=C/c1ccc(OC2OC(CO)C(O)C(O)C2O)cc1 (stereo not drawn)	.	.	.	4	.	3939	-12

The closing 3 records of the part before are carried over, then new ones follow:
SMILES	Mtb hypoxia rep	Mtb hypoxia rep growth	RN4220 kill	BJeLR viability	ugtP null kill	Autofluor counter	PrP UTR inh
COc1cccc(N2C(=O)/C(=C\c3cccs3)NC2=S)c1	6	-4	4.0	10	15	5538	-22
O=C(CN1C(=O)C2CC=CCC2C1=O)Nc1nnc(SCc2ccc(Cl)cc2)s1 (stereo not drawn)	.	.	7.5	-4	-6	3098	-43
Cc1cc(Cl)ccc1OCC(=O)N/N=C/c1ccc(OC2OC(CO)C(O)C(O)C2O)cc1 (stereo not drawn)	.	.	.	4	.	3939	-12
C=CCn1sc(N)c(C(=O)OCC)c1=S	1	5	17	8	-1	2841	-10
COCC(=O)Nc1ccc(Br)cc1C	7	5	5.7	-6	-67	4074	-15
Cc1ccc(S(=O)(=O)CCC(=O)NNC(=O)CN(C)S(=O)(=O)c2ccc(C)cc2)cc1	5	5	2.9	.	5	2966	-12
CC1CC(=O)C(C(C2=C(O)CC(C)CC2=O)c2ccccc2)=C(O)C1 (stereo not drawn)	2	4	0.5	.	0	3031	-5
O=C(Nc1nccs1)c1ccc(Br)c(S(=O)(=O)N2CCOCC2)c1	10	4	6.8	-3	6	4544	-22
NCCCCC1CNC(=S)N1CC1(c2ccccc2)CC1 (stereo not drawn)	22	10	5.7	.	5	.	.
CC(C)(C)OC(=O)NCCCCCNC(=O)c1nc[nH]c1C(=O)N1CCc2ccccc2C1	20	11	10	.	8	3493	-6
O=C(NCCCCNC(=O)c1ccc(Br)cc1)c1ccc(Br)cc1	-10	4	0.5	7	1	3701	5
O=C(CN1C(=O)NC2(CCCC2)C1=O)NCC1CCCO1 (stereo not drawn)	-2	2	2.8	-2	9	3947	-17
O=C(C#Cc1ccccc1)NCc1ccccc1F	3	-6	2.4	-3	9	3139	29
CN1CCC(CNC(=O)Nc2csc3ccccc23)CC1	-4	-6	2.3	2	1	4523	-13
COc1ccc(S(=O)(=O)N2CCOCC2)cc1C(=O)NCC(c1ccco1)N1CCCC1 (stereo not drawn)	6	-2	1.5	.	4	2985	-7
O=C1CS/C(=N/N=C/c2ccccc2OS(=O)(=O)c2ccccc2)N1	.	.	.	0	.	2114	-13
COc1cc(C2N(c3ccc(F)cc3)C(=O)C3CCCN32)cc(OC)c1OC (stereo not drawn)	.	.	1.3	-1	-2	8719	1
CC(C)CC(=O)Nc1sc2c(c1C#N)CC(C)(C)NC2(C)C	.	.	-4.6	-10	-9	2828	9
CCOC(=O)Cc1csc(NC(=O)c2ccc(NC(C)=O)cc2)n1	0	11	3.4	-3	-14	3444	-14
N=c1scc(-c2ccccc2)n1/N=C/c1ccco1	.	.	.	-3	.	1948	-18
O=C(COc1ccc(S(=O)(=O)N2CCOCC2)cc1)NCc1ccccn1	-11	2	-2.3	-22	-5	4486	-7
CCN1CCCC1CNC(=O)COc1cc(=O)n(C)c2ccccc12 (stereo not drawn)	-1	0	1.3	-4	1	23013*	-82
Cc1cc(-c2nnc(SCC(=O)Nc3cccc(Cl)c3)n2N)n[nH]1	1	3	3.1	-11	3	6265	-1
C=C1CCc2c([nH]c3ccc(OCC(C)C)cc23)C1=O	15	16	3.1	6	20	3929	-10
C=CCOC(=O)C1=C[C@@H](c2ccc(C(F)(F)F)cc2)[C@H](CCCO)[C@@H](OCC)O1	.	.	.	2	.	4056	-8
Cc1nc(CSc2n[nH]c(=O)n2-c2cccc(F)c2)cs1	17	8	3.8	4	11	3949	-11
CCOC(=O)C(O)(c1cn(C)c2ccccc12)C(F)(F)F (stereo not drawn)	.	.	3.1	4	2	4370	-9
Cc1ccc(-c2nc(-c3cccnc3)sc2CC(=O)Nc2ccc3nc(C)sc3c2)cc1	-1	-4	0.1	-2	-1	2992	-27
COc1ccc(C(=O)N2CCN(c3ccc(N4CCOCC4)nn3)CC2)cc1OC	7	5	5.0	0	6	6154	-18
C/C=C/c1ccc(OCc2cc(=O)n3cc(C)ccc3n2)c(OC)c1	4	6	5.8	-1	6	4256	-24
COc1ccccc1-c1sc2cc3c(cc2c1-c1ccc(OCCN2CCOCC2)cc1)OCO3	1	2	-2.9	.	7	3730	-29
O=C(COC(=O)CCC1CCCC1)Nc1ccc(Cl)cn1	9	6	1.8	-1	9	17161*	-14
COc1ccc(CCNC(=O)C2CC3Cn4c(nc5ccccc54)C3N2Cc2ccccc2)cc1 (stereo not drawn)	4	0	2.2	5	5	3532	-16
Cc1cc(S(=O)(=O)NCC2CC2)c(Cl)cc1Cl	13	2	4.8	-1	12	2823	-22
O=C1OCC2=C1C(c1ccc(F)cc1)CC(=O)N2c1ccccc1 (stereo not drawn)	3	2	9.3	-17	4	4497	-5
CN1CCN(C(=O)c2ccc(OCCOc3ccccc3)cc2)CC1	13	5	4.7	12	2	4068	6
CCC(C)c1ccc(OCC(=O)Nc2ccc(CN3CCOCC3)cc2)cc1 (stereo not drawn)	-11	-7	-11	0	-11	5152	-12
CCOC(=O)N1CCC(NC(=O)C(NC(=O)C2CCC(C)CC2)C(C)CC)CC1 (stereo not drawn)	4	-2	1.2	-5	8	.	.
CCc1c(C)nc2ncnn2c1NCCc1ccc(OC)c(OC)c1	4	10	2.4	11	0	18500*	-19
COc1ccc(OCCCC(=O)OC(C)C(=O)Nc2ccc(S(N)(=O)=O)cc2)cc1 (stereo not drawn)	10	-1	4.9	6	5	6552	-14
CCOC(=O)c1sc(NC(=O)C(CC)OC(=O)C(CC(C)C)NC(=O)c2ccccc2)nc1C (stereo not drawn)	.	.	-1.3	11	6	4806	-1
C/C=C(\C)CN1CCN(c2ccccc2)CC1	25	-17	1.0	-2	13	3058	-19
CCOC(=O)c1[nH]c2ccc(F)cc2c1NC(=O)c1ccccc1C(=O)O	10	2	1.4	-6	-5	3709	-23

Some values from above.
Result of CCOC(=O)c1[nH]c2ccc(F)cc2c1NC(=O)c1ccccc1C(=O)O in Mtb hypoxia rep growth: 2
Result of CCC(C)c1ccc(OCC(=O)Nc2ccc(CN3CCOCC3)cc2)cc1 (stereo not drawn) in ugtP null kill: -11

Continued.
SMILES	Mtb hypoxia rep	Mtb hypoxia rep growth	RN4220 kill	BJeLR viability	ugtP null kill	Autofluor counter	PrP UTR inh
Cc1cc(C)c(C#N)c(SCc2[nH]nc3c2C(c2ccc(F)cc2)C(C#N)=C(N)O3)n1 (stereo not drawn)	3	1	3.7	6	-7	8130	-28
CCC(=O)c1ccc(N2CCN(C(=O)c3cccs3)CC2)c(F)c1	.	.	12	-1	5	3303	-29
O/N=C/c1ccc2cccc(OCc3ccccc3)c2n1	.	.	.	4	.	3098	-1
c1ccc2c(CCN3CCNCC3Cc3cccc4ccccc34)cccc2c1 (stereo not drawn)	-6	5	28	.	5	.	.
O=C(NCC1CCCCC1)c1ccc(Cl)nc1	.	.	0.4	-10	4	4047	-16
